# WNV NS2B-NS3 inh = inhibitors of West Nile virus NS2B-NS3 protease; P06935; WNV NS2B-NS3 protease, fluorogenic substrate Ex360/Em465; stronger effect = lower value; z-score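 (tested at a level between 10 and 100 µM)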; hit rate 0.18% among 65,000; AID 577;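 active = z-score at -3 or under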;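 note: score is relative to mean and spread of the compound wells of a plate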
# Target sequence (P06935 1371-1501 limits assumed): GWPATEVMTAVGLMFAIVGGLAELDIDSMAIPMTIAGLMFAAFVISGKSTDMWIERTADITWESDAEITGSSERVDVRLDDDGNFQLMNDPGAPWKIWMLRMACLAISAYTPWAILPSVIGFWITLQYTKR
# Target sequence (P06935 1502-1679 limits assumed): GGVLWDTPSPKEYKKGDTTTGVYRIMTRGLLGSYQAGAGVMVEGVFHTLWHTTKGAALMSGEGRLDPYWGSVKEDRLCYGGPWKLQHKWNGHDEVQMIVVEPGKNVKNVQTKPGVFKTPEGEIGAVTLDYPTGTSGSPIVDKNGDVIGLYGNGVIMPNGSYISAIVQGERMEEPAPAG
# Hsc70 = Hsc70 inhibitors, probe displacement, primary screen, biochemical, fluorescence polarization (AID 568); 83,000 tested, under 10 active; Hsc70 fluorescence polarization, probe displacement; higher % means a stronger effect; strong numbers were not always called active; displacement, % at 20 µM, or IC50 in µM where a hit was titrated;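 active = displacement above 50% without optical interference and an IC50 on retest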;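 note: ATPase domain with a fluorescein-tagged ATP probe; 0% = vehicle and 100% = excess ADP; read after one hour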
# MT1-MMP promoter = inhibitors of MT1-MMP promoter transcription, cell-based, luciferase reporter, luminescence (AID 618); hit rate 0.62% among 87,000; MT1-MMP promoter luciferase reporter cells, luminescence; calls from a first round at 10 µM; hits with a dose series show EC50 in µM;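 active = over half of the reporter light lost at 10 µM or EC50 under 50 µM; inactive = the rest and hits that failed the dose series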;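 note: actives suppress MT1-MMP promoter-driven transcription so potencies describe inhibitors; HT1080 fibrosarcoma cells; overnight exposure; toxic or luciferase-blocking compounds were not removed from the actives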
# An asterisk follows results filed as active; i = inactive; . = no result given.
molecule | WNV NS2B-NS3 inh | Hsc70 | MT1-MMP promoter
COc1ccc(C(=O)N2CCCC(C(=O)N3CCCCCC3)C2)cc1 (stereo unspecified) | . | 1.6% | i
CN(C)c1ccc(NC(=O)N2CCOCC2)cc1 | . | -5.1% | i
CCOc1ccc(C2C(C(=O)OC)=C(C)N=C3SCCC(=O)N32)cc1OCC (stereo unspecified) | 1.1 | -0.1% | i
COc1ccc(-c2c(C)n([O-])c3c([n+]2=O)CCCC3)c(OC)c1 | . | -0.7% | i
COC(=O)C1=C(CSc2nncn2C)NC(=O)NC1c1ccc(F)cc1 (stereo unspecified) | . | -0.3% | i
CCCOC(=O)Nc1ccc(S(=O)(=O)Nn2cnnc2)cc1 | -1.1 | 1.7% | i
Cc1ccc(-c2cc(-c3ccccc3C)[nH]n2)c(O)c1 | . | 1.3% | i
COc1ccc2nc(C)c3c(c2c1)OC(C)C3 (stereo unspecified) | -1.2 | 1.3% | i
COC(=O)Cn1c(C)nc(=O)c(-c2ccccc2)c1C | -0.46 | -4.5% | i
Cc1cc(C)c(C(=O)Nc2ccc(S(=O)(=O)Nc3onc(C)c3C)cc2)c(C)c1 | -0.59 | 1.6% | i
Cc1ccc(-c2nnc(N(C)C(=O)c3cccnc3)s2)cc1 | . | 0.8% | i
O=C(CSc1nnnn1C1CCCC1)N1CCN(C(=O)c2ccco2)CC1 | -0.12 | -3.6% | i
C=CCn1c(=O)/c(=C/c2cc(OC)c(OC)c(OC)c2)s/c1=C(/C#N)c1nc2ccccc2n1C | 1.1 | 34% | i
COc1ccc(-n2c(SCC#N)nnc2-c2ccc(NS(=O)(=O)c3ccc(C)cc3)cc2)cc1 | 0.31 | -2.2% | i
COC(=O)c1ccsc1NC(=O)CSc1nnnn1-c1ccccc1SC | 0.65 | 1.2% | i

# Exported with two lines to a compound: 2 of the compounds above.
# Values in the order: WNV NS2B-NS3 inh	Hsc70	MT1-MMP promoter
- COC(=O)C1=C(CSc2nncn2C)NC(=O)NC1c1ccc(F)cc1 (stereo unspecified)
→ .	-0.3%	i
- CCCOC(=O)Nc1ccc(S(=O)(=O)Nn2cnnc2)cc1
→ -1.1	1.7%	i

# (continued)
molecule | WNV NS2B-NS3 inh | Hsc70 | MT1-MMP promoter
Cc1ccc(NC(=O)CN2C(=O)CSC2=O)cc1 | . | -2.2% | i
O=C1c2ccccc2S(=O)(=O)N1CC1CC(c2ccccc2)=NO1 (stereo unspecified) | -1.2 | 4.1% | i
COc1ccc2oc(=O)c(C(=O)N3CCN(c4ccccc4)CC3)cc2c1 | 1.3 | -5.5% | i
O=C(O)c1cccc(COCC(F)(F)C(F)F)c1 | 0.77 | 1.0% | i
N#CCCn1c(SCC(=O)N2CCN(S(=O)(=O)c3ccccc3)CC2)nc2ccccc21 | 0.78 | 1.9% | i
O=C(CCC1CCCC1)N1CCC(N2CCN(c3ccccc3)CC2)CC1 | -0.3 | -3.5% | i
Cc1nn(Cc2ccccc2)c(C)c1NC(=O)CCC(=O)O | 0.16 | -3.5% | i
CCCn1c(C)cc(C(=O)COC(=O)c2ccc(Cl)c(S(=O)(=O)N3CCCC3)c2)c1C | 0.37 | -4.0% | i
CCCCc1nc(S(=O)(=O)c2ccc(Cl)cc2)c(N2CCOCC2)o1 | . | -4.6% | i
COCC(C)n1c(C)cc(C(=O)CSc2nnc(N)s2)c1C (stereo unspecified) | . | 21% | i
CCCOC(=O)CSC1=C(C#N)C(c2ccccc2Cl)CC(=O)N1 (stereo unspecified) | 1.2 | -0.1% | i
CC(C)N1C2OC(C3OC4C(O3)N(C(C)C)S(=O)(=O)N4C(C)C)OC2N(C(C)C)S1(=O)=O (stereo unspecified) | . | -0.6% | i
Cc1ccccc1OCC1CN(CN2CCOCC2)C(=O)O1 (stereo unspecified) | 1.5 | -4.0% | i
O=C(CSc1nnc(-c2ccc(NS(=O)(=O)c3ccccc3)cc2)o1)NCC1CCCO1 (stereo unspecified) | -0.19 | 2.0% | i
O=C(COC(=O)c1cc(S(=O)(=O)N2CCOCC2)cs1)c1ccccc1 | 0.19 | 3.2% | i
COC(=O)c1cn(C)c2ccc(S(=O)(=O)N3CCCCC3)cc2c1=O | -0.38 | 0.1% | i
CCOC(=O)Nc1cc(Br)c2c(c1)OCCO2 | 0.09 | 0.5% | i
COc1ccc2cc(CN(CCCN3CCOCC3)Cc3nnnn3C3CCCCC3)c(=O)[nH]c2c1 | -0.66 | 3.9% | i
COc1cc(C)c(Cl)cc1S(=O)(=O)n1ccnc1C | . | 8.3% | i
COc1cccc(-c2nnc3sc(-c4ccc(C)cc4)nn23)c1 | 0.29 | -3.6% | i
CCOC(=O)C1CCCN(C(=O)C2CCN(S(=O)(=O)c3cnc[nH]3)CC2)C1 (stereo unspecified) | -0.82 | 1.8% | i
CCOC(=O)C1CCN(Cc2cn[nH]c2-c2ccccc2)CC1 | -0.52 | 3.9% | i
O=C(O)CSc1nnc(-c2ccncc2)n1C1CCCCC1 | -0.81 | 2.3% | i
CNC(=O)CSc1nc2nc(C)cc(C)n2n1 | . | 1.7% | i
CCOCCCN1CC(C(=O)NCCc2ccccc2)CC1=O (stereo unspecified) | -1.3 | -7.2% | i
O=C1CC(Sc2nnc(-c3ccccc3)o2)C(=O)N1c1ccccc1 (stereo unspecified) | -0.22 | 6.5% | i
CCc1nnc(NC(=O)CN2C(=O)c3ccccc3S2(=O)=O)s1 | 0.1 | 5.2% | i
Cc1cccc(-n2ncc3c(NCc4cccnc4)ncnc32)c1 | -0.55 | -0.4% | i
C(=C\c1ccccc1)/CSc1nnc(-c2cccnc2)o1 | 0.16 | -8.6% | i
CC(C)(C)n1nnnc1C(c1ccccc1)N1CCc2ccccc2C1 (stereo unspecified) | 0.05 | -2.6% | i
Cc1cc(-n2ccc(=O)[nH]c2=O)nc(-c2ccccc2)n1 | 1.2 | 1.3% | i
COc1cccc(/C=C2/CN(C)CC3=C2OC(N)=C(C#N)C3c2cccc(OC)c2)c1 (stereo unspecified) | 0.53 | 1.2% | i
COc1ccc(NC(=O)CSc2nncs2)cc1OC | 0.2 | 6.0% | i
Cc1ccc(S(=O)(=O)N2CCCC2C(=O)O)cc1 (stereo unspecified) | 0.28 | -7.8% | i
COc1ccc(OCC(O)Cn2c(=N)n(CCN3CCCCC3)c3ccccc32)cc1 (stereo unspecified) | 1.6 | -6.2% | i
O=c1c(-c2ccccc2)coc2c(CN3CCCC3)c(O)ccc12 | -0.66 | 0.6% | i
CCCOC(=O)c1c(NC(=O)CSc2nc(-c3ccco3)cc(C(F)(F)F)n2)sc(C(=O)OC)c1C | . | -3.4% | i
Cc1cccc(CN2CCC(C(N)=O)CC2)c1 | . | -4.7% | i
COc1cc2c(cc1NC(=O)CSCC(=O)O)oc1ccccc12 | -1.2 | 2.8% | i
CC1CCCCN1CCNC(=O)C1CC(=O)N(c2ccc(F)c(Cl)c2)C1 (stereo unspecified) | 0.68 | 0.5% | i
N#Cc1ncc(C(F)(F)F)cc1Sc1ccc(N)cc1 | . | 3.1% | i
C=CCNC(=O)C(C)Sc1ccc(Cl)cc1 (stereo unspecified) | -1 | -0.9% | i
CC(=O)Cc1nsc(NC(=O)c2ccc(COc3ccc(C)cc3)o2)n1 | -0.22 | 1.5% | i
CCOc1ccc(OCC)c(NC(=O)CSc2nc3ccccc3c(=O)n2C)c1 | -0.58 | 9.7% | i
O=C(CSc1nnc(-c2ccco2)n1CC1CCCO1)c1ccccc1 (stereo unspecified) | 0.53 | -1.8% | i
O=C1c2ccccc2C(=O)N1c1ccccc1S(=O)C(F)(F)F (stereo unspecified) | 2.5 | -0.9% | i
Cc1ccccc1CN1CCN(C(=O)c2cccc(F)c2)CC1 | -0.17 | -3.8% | i
O=C(Nc1cccnc1)C1(F)C(F)(F)C(F)(F)C(F)(F)C(F)(F)C1(F)F | -0.56 | -4.9% | i
CN(C)C(=O)CSc1nc2ccccc2c(=O)[nH]1 | 2 | 2.0% | i
C=CCNC(=O)CN(c1ccccc1OCC)S(=O)(=O)c1ccc(C)cc1 | . | 3.1% | i
N#Cc1cn(-c2ccccc2)nc1-c1ccccc1 | 0.13 | 4.1% | i
CC(C)(C)c1ccc(NC(=O)COC(=O)C2=COCCO2)cc1 | -0.02 | -1.4% | i
CC(/C=C/c1ccc(O)cc1)=N/O | . | 5.5% | i
O=C(Nc1ccccc1)N1CCC(c2nc(-c3ccc(S(=O)(=O)N4CCOCC4)cc3)no2)CC1 | 0.31 | -2.8% | i
CCOC(=O)c1ccc2c(c1)nc(COc1ccc(OC)cc1)n2CC | . | -1.4% | i
Cc1ccc(CNC2=NCCCCC2)n1C | -0.06 | -3.4% | i
Cc1ccnc(SCCn2c(Br)nc3c2c(=O)n(C)c(=O)n3C)n1 | 1.1 | -0.1% | i
FC(F)(F)c1cc(-c2ccco2)nc(-n2nc(C(F)(F)F)cc2C2CC2)n1 | -0.72 | -3.2% | i
Cc1ccc(Cn2ccc(NC(=O)CCSc3nc(-c4ccco4)cc(C(F)(F)F)n3)n2)cc1 | 1.1 | -3.0% | i
Cc1ccc(Nc2nnns2)cc1 | . | -1.1% | i

# (more compounds)
molecule | WNV NS2B-NS3 inh | Hsc70 | MT1-MMP promoter
COc1ccc(NC(=O)C23CCC(C2)C(C)(C)C3=O)cc1 (stereo unspecified) | -0.59 | 3.9% | i
CCOc1ccccc1N1C(=O)CC(N(O)c2ccccc2)C1=O (stereo unspecified) | 1.3 | 1.9% | i
Cc1nc2nc3c(cn2n1)C(=O)CC(c1ccccc1)C3 (stereo unspecified) | -0.38 | -1.2% | i
CCN(CC)C(=O)c1cc2c(=O)n3cccc(C)c3nc2n1C | -0.44 | -1.6% | i
COc1cc(C)c(S(=O)(=O)N2CCN(C)CC2)cc1C | -0.73 | -2.2% | i
O=C(CSc1ncn(-c2ccccc2)n1)c1cccs1 | -2.2 | 2.8% | i
CN(C)c1ccc(C(=S)N2CCN(c3ccccc3)CC2)cc1 | 2 | 2.9% | i
CC1(C)CC(=O)C(C(=O)CCCCC(=O)C2C(=O)CC(C)(C)CC2=O)C(=O)C1 | 0.81 | 2.2% | i
Nc1nc(N2CCOCC2)nc(N(c2ccccc2)c2ccccc2)n1 | 0.36 | 1.2% | i
CC[n+]1ccc(C)c2cc(S(=O)C(F)(F)F)ccc21 (stereo unspecified) | 0.73 | -3.1% | i
CC(C)[C@H](NC(=O)OC(C)(C)C)C(=O)N/N=C/c1cccc2nccnc12 | . | -1.7% | i
CCCC(c1nnnn1Cc1ccco1)N1CCN(C2CCCC2)CC1 (stereo unspecified) | -0.68 | -10% | i
Cc1csc(NC(=O)CSc2nnc(-c3ccoc3C)n2Cc2ccco2)n1 | 0.76 | 0.2% | i
Cc1cc(=O)[nH]c(-c2ccccc2O)n1 | -1.2 | -7.8% | i
CCN(CC)CCNC(=O)c1ccc(CS(=O)(=O)c2ccc(Br)cc2)o1 | -0.66 | -0.1% | i
Cc1nnc(SCC(N)=O)n1CCc1ccccc1 | . | -1.5% | i
CN(C)c1ccc(CNn2cnnc2)cc1 | -0.01 | -3.3% | i
COc1ccc(-c2cnn(C3CCS(=O)(=O)C3)c2N)cc1 (stereo unspecified) | . | 0.8% | i
Cc1ccc2c(c1)[nH]c1c(=O)n(CCCN3CCOCC3)cnc12 | 0.25 | -1.6% | i
CCOC(=O)C1CCN(c2nc3ccccc3nc2C(C#N)C(=O)OC(C)COC)CC1 (stereo unspecified) | 0.41 | 60% | i
Cc1c(N=Cc2ccncc2)c(=O)n(-c2ccccc2)n1C | -0.73 | -1.6% | i
COCCN(C(=O)CCC(=O)Nc1ccccn1)C(C(=O)NC1CCCC1)c1ccc(OC)cc1 (stereo unspecified) | 0.27 | -4.1% | i
O=C(NCCCCO)C(F)(F)C(F)(F)C(F)(F)C(=O)NCCCCO | -0.39 | -6.2% | i
Cc1ccccc1OCC(=O)NCCN(C)C | -0.63 | -5.9% | i
COCc1[nH]nc2c1C1(CCSCC1)C(C#N)=C(N)O2 | -0.23 | 5.2% | i
Cc1cccc(-n2ncc3c(NCc4ccc5c(c4)OCO5)ncnc32)c1 | 0.02 | 3.9% | i
CCN(CC)S(=O)(=O)c1ccc(-c2nnc(SCC(=O)c3ccc(OC)cc3)o2)cc1 | -1.3 | 4.4% | i
Cc1ccc(CC2CC(=O)N(c3ccncc3)C2=O)cc1 (stereo unspecified) | 0.23 | -4.1% | i
CCOCC(=O)Nc1cccc(NC(C)=O)c1 | -0.58 | -5.5% | i
COc1cccc(C2=CC(c3ccc(N(C)C)cc3)n3ncnc3N2)c1 (stereo unspecified) | -0.87 | -13% | i
COc1ccccc1S(=O)(=O)Nc1cccc(-c2nnc3n2CCCCC3)c1 | . | 6.3% | i
N/C(=N\OC(=O)c1ccco1)c1cccc(Br)c1 | . | 0.3% | i
O=C(c1cc2n(n1)C(C(F)(F)F)CC(c1ccco1)N2)N1CCc2ccccc2C1 (stereo unspecified) | -0.27 | 0.1% | i
COC(=O)Cc1cc(=O)n2[nH]c(C(F)(F)F)nc2n1 | . | -3.4% | i

# Compounds above with a thiophene ring, fused or not, in the order listed:
molecule | WNV NS2B-NS3 inh | Hsc70 | MT1-MMP promoter
COC(=O)c1ccsc1NC(=O)CSc1nnnn1-c1ccccc1SC | 0.65 | 1.2% | i
O=C(COC(=O)c1cc(S(=O)(=O)N2CCOCC2)cs1)c1ccccc1 | 0.19 | 3.2% | i
CCCOC(=O)c1c(NC(=O)CSc2nc(-c3ccco3)cc(C(F)(F)F)n2)sc(C(=O)OC)c1C | . | -3.4% | i
O=C(CSc1ncn(-c2ccccc2)n1)c1cccs1 | -2.2 | 2.8% | i

# Source: PubChem (several laboratories)
